From PubChem
Bfl-1 A1 inh = inhibitors of the anti-apoptotic protein A1, read as caspase activation; MEF A1-2A-BIM cells, Caspase-Glo 3/7 luminescence, 3 h; percent of clofoctol response, vehicle zero; caspase activation, % (no concentration beside the values); 330,000 tested, 0.066% active; AID 2462;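 active means over half of replicate activation scores above 10%, or exactly half above 10 with the replicate mean above 10; inconclusive means replicate mean below 10 yet half the replicates above 10; inactive means over half of replicates below 10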;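 further: wells of about 30 µL received 50 nL stock; many hits fall short of the cut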
MLL AF4-AF9 inh = MLL-AF4/AF9 protein interaction inhibition. P42568. AlphaScreen, biotin-AF4 peptide binding to FLAG-AF9. inhibition, % at 10 µM. 350,000 tested, 0.47% active. AID 651704;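 active means every replicate reaching a set inhibition limit, whatever the replicate mean, cut at about 25% in these data; inconclusive means mean inhibition reaches that limit but some replicates miss it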;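 further: 0% = plate neutral control median and 100% = total signal loss; the record names both 10 and 1 µM as test concentration; the first replicate is given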
Calb FLC = C. albicans growth modulation with fluconazole | growth inhibition, % (concentration not given with the values) | 300,000 tested, 0.57% active | C. albicans CaCi-2 (fluconazole-resistant clinical isolate) + fluconazole, Alamar Blue growth, 48 h;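 active means most replicates above 75%; inconclusive means exactly half above 75%; inactive means most below 75%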;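 further: all wells also contain fluconazole at 8 µg/ml as a sub-toxic cotreatment; 0% = median of DMSO wells and 100% = median of geldanamycin control wells; wells of about 8 µL received 7.5 nL stock; the first replicate is given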
RanGTP-Impb inh = inhibitors of RanGTP-importin-beta interaction, primary screen, biochemical, FRET, CFP-Ran, YFP-importin-beta, homogeneous. cell-free CFP-Ran/YFP-importin-beta FRET ratio. inhibition, % (test concentration not listed). 300,000 tested, 1.1% active;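 active means most replicates above 15%; inconclusive means exactly half above 15%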;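 further: 0% = DMSO wells and 100% = Ran loaded with GDP instead of GTP; wells of about 40 µL received 100 nL stock; the first replicate is given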
Vif A3G = HIV-1 Vif–A3G interaction blockers – biochemical, TR-FRET, GST-Vif 1-94, biotin-A3G peptide, dose response retest, primary screen (AID 1117319); TR-FRET GST-Vif / biotin-A3G peptide binding; higher % means a stronger effect; test concentration not given here; strong numbers were not always called active; inhibition, %; hits with a dose series show IC50 in µM; 260,000 tested, 0.57% active;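 active means above the screen mean plus three standard deviations and confirmed in dose response; inconclusive means results disagree or hit not tested in dose response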;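 further: Vif residues 1-94 fused to GST binding biotinylated APOBEC3G peptide 110-148; 0% = full assay without inhibitor and 100% = GST in place of GST-Vif; retest series ran down from 100 µM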
T cruzi repl = blocks replication of Trypanosoma cruzi. T. cruzi beta-gal in NIH3T3, luminescence, 90 h. AID 1885. 300,000 tested, 1.4% active. inhibition, % (no concentration beside the values);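 active means mean inhibition across valid replicates above about 55%, limit read from the data; inconclusive means mean below that limit but half or more replicates reach it; inactive means mean below it, under half of replicates reach it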;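 further: signal also drops with host cell toxicity which is not excluded here; 0% = plate median of DMSO wells and 100% = zero luminescence signal; higher percent means less beta-gal luminescence so fewer parasites; stock transfer was 50 nL into about 50 µL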
Beta cell apopt = blocks beta cell apoptosis | protection from apoptosis, % (test concentration not listed) | INS-1E cytokine-induced death, ATP luminescence, 48 h; percent of positive-control rescue, neutral wells zero | 300,000 tested, 0.8% active | AID 435005;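 active means all replicates at 75% or more, or half of them and the mean; inconclusive means half reach 75% but not the mean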;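 further: 0% = cytokine-treated negative control wells and 100% = positive control rescue; higher means more ATP so stronger rescue from cytokine killing; wells of about 40 µL received 100 nL stock; the first replicate is given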
LANA-H2B inh = blocks KSHV LANA binding to histone H2A/H2B. cell-free LANA-H2A/H2B peptide, fluorescence polarization. inhibition, % (test concentration not listed). 320,000 tested, 0.6% active; in the data active means inhibition mostly above about 10%, no sharp cut-off; inactive means mostly below about 6.7%;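 further: stock transfer was 7.5 nL into about 10 µL; 0% = median of vehicle wells and 100% = median of positive control wells; one replicate is shown; the record names a cut of 25% in any replicate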
Target sequence (Q9QR71 whole entry, looked up): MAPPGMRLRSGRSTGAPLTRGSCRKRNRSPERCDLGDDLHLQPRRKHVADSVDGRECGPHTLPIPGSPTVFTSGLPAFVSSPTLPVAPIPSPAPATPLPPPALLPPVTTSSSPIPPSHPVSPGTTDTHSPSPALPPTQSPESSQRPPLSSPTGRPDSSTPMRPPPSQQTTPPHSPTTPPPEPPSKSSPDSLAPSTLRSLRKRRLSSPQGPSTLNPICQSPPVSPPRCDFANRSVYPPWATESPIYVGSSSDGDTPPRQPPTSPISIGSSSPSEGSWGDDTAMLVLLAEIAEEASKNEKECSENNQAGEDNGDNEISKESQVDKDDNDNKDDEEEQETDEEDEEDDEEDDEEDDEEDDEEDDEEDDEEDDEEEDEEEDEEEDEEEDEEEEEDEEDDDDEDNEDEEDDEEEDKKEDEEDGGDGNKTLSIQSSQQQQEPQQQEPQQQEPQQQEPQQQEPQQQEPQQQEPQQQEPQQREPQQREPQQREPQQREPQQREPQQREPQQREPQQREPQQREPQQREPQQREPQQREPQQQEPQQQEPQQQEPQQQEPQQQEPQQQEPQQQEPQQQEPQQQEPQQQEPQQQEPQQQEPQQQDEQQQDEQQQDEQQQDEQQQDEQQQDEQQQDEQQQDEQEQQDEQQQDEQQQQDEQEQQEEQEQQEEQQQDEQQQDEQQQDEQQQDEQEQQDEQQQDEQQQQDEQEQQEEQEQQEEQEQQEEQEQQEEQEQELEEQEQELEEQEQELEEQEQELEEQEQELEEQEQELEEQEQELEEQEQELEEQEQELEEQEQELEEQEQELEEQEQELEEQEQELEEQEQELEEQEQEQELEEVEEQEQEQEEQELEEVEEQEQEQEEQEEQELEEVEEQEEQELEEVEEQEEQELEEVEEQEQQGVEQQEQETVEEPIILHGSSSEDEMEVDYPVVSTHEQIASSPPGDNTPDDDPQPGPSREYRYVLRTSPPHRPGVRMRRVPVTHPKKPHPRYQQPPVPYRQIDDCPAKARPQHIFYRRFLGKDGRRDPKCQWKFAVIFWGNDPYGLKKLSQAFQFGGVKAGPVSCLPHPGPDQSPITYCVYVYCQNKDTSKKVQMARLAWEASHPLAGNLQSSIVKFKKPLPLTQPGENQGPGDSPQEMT
Starred values were filed as active, the others as inactive; ? = inconclusive; · = no result given.

SMILES	Bfl-1 A1 inh	MLL AF4-AF9 inh	Calb FLC	RanGTP-Impb inh	Vif A3G	T cruzi repl	Beta cell apopt	LANA-H2B inh
O=C(O)c1cc([N+](=O)[O-])cc([N+](=O)[O-])c1N1CCN(c2cccc(C(F)(F)F)c2)CC1	-0.2	-2.0	9	1.2	-12%	-1	2	0.0
O=C(CN1CCN(c2ccc(Cl)cc2[N+](=O)[O-])CC1)N1CCOCC1	1.4	-3.4	-9	2.2	8%	-21	-8	5.0
COc1cc2c(=O)n(CCC(=O)NCC3CCCO3)c(=O)n(CC(=O)Nc3ccc(C)c(C)c3)c2cc1OC (stereo not given)	1.1	-2.0	-1	-6.3	2%	2	-3	3.3
CCOc1ccc(/C=C/C(=O)c2cc(Br)ccc(=O)c2O)cc1	1.1	8.6	·	·	?	·	2	0.9
CC1CCCCC1NC(=O)Cn1nnc(-c2ccc(Cl)cc2)n1 (stereo not given)	0.3	?	14	0.1	1%	-11	-13	-3.4
COc1cc(C)c(S(=O)(=O)NOCc2ccccc2)c(C)c1C	0.9	-1.8	-12	?	-3%	25	-7	1.1
COc1ccc(N=C2SC(CC(=O)Nc3ccccc3)C(=O)N2CCN2CCOCC2)cc1 (stereo not given)	0.1	4.3	-5	-2.7	·	0	1	5.9
CCOC(=O)NC(=O)/C(C#N)=C/c1ccc(N(C)C)cc1	-0.4	1.9	15	3.6	-10%	7	·	-6.8
CCOC(=O)CC(NC(=O)Cn1nnc(-c2ccccc2F)n1)c1ccc(OC)cc1 (stereo not given)	0.3	1.4	24	2.9	0%	3	-2	2.4
CCOC(=O)CNc1nc(Cl)nc(N2CCCCC2)n1	0.8	-0.3	2	0.6	-1%	-13	0	-4.6
Cc1cc(-c2ccccc2C(=O)O)on1	0.6	·	-7	-3.0	0%	-2	-8	-5.0
CCC1Oc2ccc(C)cc2N(Cc2cccc(C)c2)C1=O (stereo not given)	0.5	9.0	-11	-0.2	11%	1	-1	-4.3
CC(C)CNS(=O)(=O)c1ccc(S(=O)(=O)NC2CCOC(C)(C)C2)cc1 (stereo not given)	-1.4	-2.9	0	1.1	·	-8	-3	1.7
N#Cc1cc([N+](=O)[O-])ccc1NC(=O)CSc1n[nH]c(=O)n1C1CC1	0.1	-0.2	·	·	0%	·	5	-12
N#CC1(NC(=O)COC(=O)c2cc([N+](=O)[O-])ccc2N2CCCC2)CCCCC1	-0.6	13	5	6.7	-2%	0	5	-3.0
CC(=O)N1c2ccc(S(=O)(=O)NCCC(=O)N(C)C3CCCCC3)cc2CC1C (stereo not given)	-0.8	1.6	-25	1.0	-4%	-13	·	2.3
Cc1nn(-c2ccccc2)c2c1C(c1c(C)[nH]c(C#N)c1C)C(C#N)=C(N)O2 (stereo not given)	-0.1	·	3	-3.3	14%	2	-5	-5.3
Fc1ccc(NCc2nnc(SCc3ccccc3)o2)cc1	-0.5	-0.1	13	-1.0	·	0	-8	1.7
NC(=O)CCN(C(=O)c1cccc(S(=O)(=O)N2CCc3ccccc32)c1)c1ccccc1	-0.2	1.7	·	·	-12%	·	1	-2.6
COC(=O)c1ccc(CN2[C@H](C(=O)OC)C[C@@]3(O)[C@H](O)[C@H](O)[C@H](O)C[C@@H]23)cc1	1.8	-5.6	-7	6.0	-3%	-8	-9	-3.0
COCCN1Cc2cccc(C(=O)Nc3cccnc3)c2C1=O	0.2	·	·	·	3%	·	0	-1.3
C#CCOCCOCCOCCNc1nc(N2CCOCC2)nc(N2CCN(C(=O)CCCCCCCCCCNC(=O)[C@@H]([C@H](C)CC)n3cc(CCCCCN)nn3)CC2)n1	-0.1	18	·	·	·	·	4	-6.9
COc1ccc(N2CCN(C3=CC(=O)N(c4cccc(Cl)c4)C3=O)CC2)cc1	0.4	-0.5	2	-2.0	-6%	3	0	2.2
O=C(O)c1cc(-c2ccccc2Cl)n(-c2cccc(Cl)c2)n1	0.2	-0.7	2	4.9	1%	0	·	-4.4
Cc1ccc(S(=O)(=O)N2CCCCC2)cc1NC(=O)CSCC(=O)O	-0.1	-0.9	-3	-0.4	·	0	2	-0.8
O=C(NCC1CCCN(Cc2cccc(F)c2)C1)c1cccc2ccccc12 (stereo not given)	0.7	2.9	-6	1.6	·	40	-2	-5.6
CCOC(=O)N1CCN(C(=O)/C(=C/c2ccc(F)cc2)NC(=O)c2ccccc2)CC1	0.6	-1.7	-2	1.2	·	-1	-4	8.1
CC1CC(C)CN(C(C)C(=O)Nc2cc(S(=O)(=O)N3CCCCC3)ccc2Cl)C1 (stereo not given)	0.2	-2.1	·	·	-7%	·	-12	-3.9
COc1cccc(-c2noc(-c3ccoc3C)n2)c1	-7.8	-1.7	-8	2.6	8%	-16	·	3.1
Cc1nn(C)cc1S(=O)(=O)Nc1cccc(Cl)c1	0.4	2.6	-6	1.7	3%	2	-1	8.3
CCc1ccc(NC(=O)C[n+]2cc(-c3ccc(C)cc3)n3c2CCC3)cc1	-0.3	2.8	-24	4.8	-5%	12	8	-3.4
Cc1ccc(C(=O)NCc2ccc(F)cc2)s1	1.0	0.0	-4	1.6	·	-31	-1	1.1
CCOC(=O)c1ccc(Nc2cc(C)nc3nc(C)nn23)cc1	0.4	-1.4	14	?	-2%	-1	-7	-1.0
COc1ccc(S(=O)(=O)NCCSC(C)(C)C)c(Cl)c1Cl	0.7	·	-1	5.0	6%	-4	7	-5.6
COc1ccc(N2C(=O)[C@@H]3[C@H](C2=O)[C@H](C(C)=O)N2c4ccccc4C=C[C@@H]32)cc1	0.4	4.6	9	2.1	2%	6	1	-0.8
CC(C)C(=O)Nc1ccc(NC(=O)c2cc3ccccc3o2)cc1	-5.2	·	-12	-0.3	1%	1	10	0.5
O=C(O)/C=C/C(=O)NNC(=O)c1ccc(Br)cc1	0.2	-1.3	-2	?	·	-26	·	-2.3
COC(=O)c1sc(N/N=C/c2ccc(C(C)C)cc2)nc1C	-1.5	-0.4	7	9.8	·	64*	-6	4.8
CC/C(=N\NC(=O)c1ccc(N(C)C)cc1)c1ccccc1	0.0	·	34	1.6	-2%	-23	-2	·
Cc1noc(C)c1COc1ccc(C(=O)Nc2cccnc2)cc1	·	0.4	-3	-0.8	8%	-7	·	·
O=C(CSC(=S)N1CCOCC1)Nc1ncc2c(n1)CCCC2=O	0.9	-4.9	13	3.6	1%	-3	-1	-2.7
Cn1c(N)c(C(c2ccccc2)c2c(N)n(C)c(=O)n(C)c2=O)c(=O)n(C)c1=O	0.4	·	-1	2.4	·	-11	-4	29*
CC(=O)Nc1ccc(S(=O)(=O)N2CCSC2c2ccccc2)cc1 (stereo not given)	0.2	·	-7	-1.8	7%	3	-1	-6.7
CCc1ccc(S(=O)(=O)NCCc2csc(C)n2)s1	-0.5	-4.2	-27	5.3	10%	-17	-3	-4.4
Cc1ccc(C)c(S(=O)(=O)N2CCN(C(=O)C3CC3C)CC2)c1 (stereo not given)	1.2	-6.5	-4	3.5	-1%	0	-4	0.8
CC(NC(=O)C1CCCN1S(=O)(=O)c1ccccc1)c1ccccc1 (stereo not given)	0.1	1.3	-8	-1.4	·	2	4	5.5
CC(C)Cc1cc(C(=O)NCc2cccnc2)no1	0.2	3.8	-7	-4.5	1%	-13	3	-2.6
CC(=O)c1sc(NC(=O)CSC(C)C(=O)Nc2cc(C)on2)nc1-c1ccccc1 (stereo not given)	-0.4	-2.1	-4	-1.4	-5%	-5	2	-1.3
Cc1ccc(C(=O)N(C)Cc2ccccc2)cc1S(=O)(=O)N1CCOCC1	-0.5	-1.7	1	-3.6	-2%	8	-3	4.6
O=C(O)C(c1ccccc1)N1C(=O)c2ccccc2C1=O (stereo not given)	0.6	4.5	-3	-1.2	·	-15	-3	8.8
CN(CC(=O)Nc1ccccc1Cl)C(=O)COc1cccc2c1OC(C)(C)C2	0.7	-1.5	0	?	-7%	-1	0	-6.8
O=C(COC(=O)c1ccccc1SCC(=O)N1CCCC1)Nc1ccccc1	-2.6	-1.6	-20	1.3	·	-9	-10	-0.4
COc1ccc(-c2onc(C)c2-c2ccc3c(c2)OCCO3)c(O)c1	0.1	8.2	11	1.8	3%	-12	-2	-1.7
O=C(CC1COc2ccccc2O1)NC1CCCCC1 (stereo not given)	0.4	·	?	0.7	2%	-3	0	1.7
COc1ccc(Nc2ccc(C(F)(F)F)cc2[N+](=O)[O-])cn1	-0.4	4.1	18	-0.9	-7%	-11	-8	-0.7
O=C(CC1SC(N2CCCC2)=NC1=O)Nc1ccc(C(=O)N2CCN(c3cccc(Cl)c3)CC2)cc1 (stereo not given)	-4.2	-28	8	2.8	-3%	22	0	3.8
O=C(COC(=O)COc1ccc(Cl)cc1)NC1CC1	0.6	0.4	·	·	·	·	-8	2.3
CC(=O)c1cccc(NC(=O)CCCNC(=O)c2ccc(Cl)cc2)c1	0.7	-0.3	-3	?	4%	-13	-3	0.2
CN(C(=O)COc1ccccc1)c1nnc(-c2ccncc2)s1	0.2	·	4	1.1	?	-18	-6	1.5
CCOC(=O)C(=CNc1ccc(C)cc1C)C(=O)OCC	0.4	·	3	0.9	-2%	8	-5	-5.4
Next results follow:
SMILES	Bfl-1 A1 inh	MLL AF4-AF9 inh	Calb FLC	RanGTP-Impb inh	Vif A3G	T cruzi repl	Beta cell apopt	LANA-H2B inh
CN1CCN(C(=O)c2cc3ccccc3oc2=O)CC1	0.2	·	-5	0.2	26%	14	-10	-3.2
COc1ccccc1N1CCN(C(=O)CCSCc2ccccc2F)CC1	0.6	0.2	4	1.8	-1%	-4	3	-3.4
Cc1ccc(CNCC(O)(c2ccccc2)c2ccccc2)cc1	-0.9	-0.4	-5	1.6	-2%	18	3	-8.0
Clc1ccccc1C1Nc2cccc3cccc(c23)N1	-0.4	13	51	2.3	14%	-35	-3	-1.8
O=C(Nc1ccc(N2CCOCC2)cc1)c1cccc(S(=O)(=O)N2CCOCC2)c1	-0.9	3.3	·	·	·	·	0	-0.5
CN(C)C(=O)c1cn(-c2ccc(Cl)cc2)c(=O)c2ccccc12	0.6	-0.3	-4	0.9	7%	-8	-4	-1.5
Cc1ccc(OCC(=O)Nc2ccc3c(c2)OCO3)c([N+](=O)[O-])n1	-0.4	0.5	-2	-2.2	-8%	-8	-5	0.9
CCNC(=S)N/N=C(\C)c1ccc(Cl)s1	-0.2	·	-9	2.8	2%	-1	·	4.1
O=C1CSC(c2ccccn2)N1c1ccc(Br)cc1 (stereo not given)	0.0	-2.4	5	1.3	-5%	-5	-7	1.1
CN(C(=O)CC1C(=O)NCCN1Cc1ccccc1C(F)(F)F)C1CCOCC1 (stereo not given)	2.7	-0.1	8	1.1	·	-18	·	-1.7
CC1(C)Cc2c(c(-c3ccccc3)nc(N3CCCC3)c2C(N)=O)CO1	0.8	·	-3	-9.1	-3%	3	-6	-1.0
Cc1ccc(NC(=O)Nc2ccc3c(c2)N(C)C(=O)CS3)nc1	-0.4	1.8	5	1.5	10%	-16	0	0.3
